Measles inh – inhibitors of measles virus growth in infected cells; infected Vero cells, GFP fluorescence, 64 h; active compounds read low; z-score (concentration not given with the values); 0.1% of 33,000 active;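 active = z-score under -3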;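 note: score is relative to mean and SD of the compound wells of a plate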
* marks the source's active call; other numbers are inactive results. Only part of the results is shown. The share of hits here may be higher or lower than overall.

SMILES	Measles inh
COc1ccc(-c2nc3cc(C)ccc3o2)cc1N=Cc1cccc(OC)c1O	-0.46
CCOc1ccc(NC(=O)c2c(I)cnn2C)cc1	0.42
Oc1ccccc1-c1nc(Nc2ccc(Br)cc2)c2ccccc2n1	-0.07
CCOC(=O)c1ccccc1Oc1c(F)c(F)nc(N2CCOCC2)c1F	-0.77
CN1CCc2[nH]c3ccccc3c2C1	-0.52
O=C1CC(Sc2ccc([N+](=O)[O-])cc2)C(=O)N1c1cccc(N2C(=O)CC(Sc3ccc([N+](=O)[O-])cc3)C2=O)c1 (configuration not stated)	0.38
CC(C)c1ccc(Nc2cc(C(=O)NCCCN3CCOCC3)c3ccccc3n2)cc1	0.89
C#CC(C)(CC)NC(=O)c1cc2cc([N+](=O)[O-])ccc2oc1=O (configuration not stated)	2
CCC(C)NC(=O)c1ccc2c(=O)n(Cc3ccc4c(c3)OCO4)c(=S)[nH]c2c1 (configuration not stated)	-1.9
Cc1cc(NC(=O)CSc2nc3c(cc2C#N)CCCCC3)no1	-0.4
O=c1oc2ccccc2c(O)c1[N+](=O)[O-]	0.59
CCc1nnc(SCC(=O)NCCC2=CCCCC2)nc1CC	0.18
CCc1ccc(-c2cc(C(=O)Nc3nc4ccccc4[nH]3)c3ccccc3n2)cc1	-0.73
CCOC(=O)C1=NN=C2C(=O)N(c3ccc(C)cc3C)C(=O)C12 (configuration not stated)	0.47
Cc1ccc(C23CC4CC(CC(Cl)(C4)C2)C3)cc1N	-1.3
Cc1ccc(-n2nc3c(c2NC(=O)c2ccc(C)c([N+](=O)[O-])c2)CSC3)cc1	-1
CN(C)CCC(C)(O)Cc1ccccc1 (configuration not stated)	-1.5
O=c1oc2cc(OCc3ccccc3)ccc2cc1-c1nc2ccccc2s1	3.3
O=S(=O)(Nc1ccc(-c2csc(-c3ccccc3)n2)cc1)c1ccccc1	-0.95
CCOC(=O)c1[nH]c(C)c(CNc2cc(OC)ccc2OC)c1C	0.2
Cc1c(C(C)C)c(N2CCOCC2)n2c(nc3ccccc32)c1C#N	-0.76
CC1(C(=O)NC2CCCCCC2)CCC(=O)N1CCc1ccc(Cl)cc1 (configuration not stated)	0.02
Cc1ccc2[nH]c(=O)c3cc(C(=O)N4CCN(c5ccccn5)CC4)sc3c2c1	-1.2
O=C(Nc1cc(C(F)(F)F)ccc1OCc1ccccc1)c1ccc(Br)cc1	-0.47
CCOC(=O)c1c(C)n(-c2ccccc2)c2ccc(OC(=O)c3ccccc3)cc12	-0.94

A draw from above in order of length of the SMILES, low to high:
SMILES	Measles inh
CN1CCc2[nH]c3ccccc3c2C1	-0.52
CCOc1ccc(NC(=O)c2c(I)cnn2C)cc1	0.42
O=c1oc2ccccc2c(O)c1[N+](=O)[O-]	0.59
CCc1nnc(SCC(=O)NCCC2=CCCCC2)nc1CC	0.18
Cc1ccc(C23CC4CC(CC(Cl)(C4)C2)C3)cc1N	-1.3
Oc1ccccc1-c1nc(Nc2ccc(Br)cc2)c2ccccc2n1	-0.07
CCOC(=O)c1[nH]c(C)c(CNc2cc(OC)ccc2OC)c1C	0.2
Cc1c(C(C)C)c(N2CCOCC2)n2c(nc3ccccc32)c1C#N	-0.76
CC1(C(=O)NC2CCCCCC2)CCC(=O)N1CCc1ccc(Cl)cc1 (configuration not stated)	0.02
CCOC(=O)C1=NN=C2C(=O)N(c3ccc(C)cc3C)C(=O)C12 (configuration not stated)	0.47
COc1ccc(-c2nc3cc(C)ccc3o2)cc1N=Cc1cccc(OC)c1O	-0.46
O=C(Nc1cc(C(F)(F)F)ccc1OCc1ccccc1)c1ccc(Br)cc1	-0.47
CC(C)c1ccc(Nc2cc(C(=O)NCCCN3CCOCC3)c3ccccc3n2)cc1	0.89
CCC(C)NC(=O)c1ccc2c(=O)n(Cc3ccc4c(c3)OCO4)c(=S)[nH]c2c1 (configuration not stated)	-1.9
Cc1ccc(-n2nc3c(c2NC(=O)c2ccc(C)c([N+](=O)[O-])c2)CSC3)cc1	-1

Next records follow:
SMILES	Measles inh
CCC(C)NC(=O)Cn1cnc2c1c(=O)n(C)c(=O)n2C (configuration not stated)	0.11
CCCCN1C(=O)C2C(C(=O)Nc3ccc(Cl)cc3)C3C=CC2(O3)C1C(=O)NC1CCCC(C)C1C (configuration not stated)	2.1
O=C(NC1CCCC1)c1cc(Nc2ccccc2)nc2ccccc12	-0.15
Cn1cc(C(=O)N2CCCCCC2)c(=O)c2cc(S(=O)(=O)N3CCCCC3)ccc21	0.06
Cc1ccc2cc3cc(C(=O)N(C)Cc4ccccc4)sc3nc2c1	-2.2
COc1ccc2cc(C(=O)NCc3ccco3)c(=Nc3ccc(C(=O)O)cc3)oc2c1	0.06
CCOC(=O)c1cnn2c(C(F)(F)F)cc(-c3ccco3)nc12	3.8
O=C(c1ccc(CS(=O)(=O)c2ccccc2)o1)N1CCN(c2ncccn2)CC1	-1.1
O=C(CC1N=C2c3ccccc3N=C(SCc3ccc(Cl)cc3)N2C1=O)N1CCN(c2ccccc2)CC1 (configuration not stated)	0.7
CC(C)OCCCNc1ncnc2ccccc12	0.35
NC(=O)c1ccccc1NC(=O)CSc1nc2ccccc2o1	-0.3
COc1ccc(NC(=O)c2ccoc2C)cc1	-0.24
Cc1onc(-c2ccccc2)c1C(=O)N1CCN(c2ccc(OCc3ccccc3)cc2)CC1	-0.43
CCC(Sc1nc2cc(OC)c(OC)cc2c2nc(C)nn12)C(=O)Nc1cccc(OC)c1 (configuration not stated)	-0.14
C=CCOc1ccc(C2Oc3ccccc3C3CC(c4ccc(OC)cc4)=NN32)cc1 (configuration not stated)	-0.4
COc1ccc(OC(=NS(=O)(=O)c2ccc(C)cc2)c2ccccc2)cc1	0.25
O=C(O)Cn1nc(-c2ccc(Cl)cc2)ccc1=O	-2.4
COc1ccc(Cl)cc1C(=O)Nc1sc2c(c1C#N)CCC2	-0.61
CCC(=O)N1c2ccc(S(=O)(=O)CCC(=O)Nc3ccc(Cl)c(C(F)(F)F)c3)cc2CC1C (configuration not stated)	-0.5
COc1ccc(S(=O)(=O)c2c(C)c(NC(=O)c3ccc(Cl)cc3)cc(C)c2O)cc1	0.37
CC1(C)C(=O)OC(c2ccc([N+](=O)[O-])cc2)C2(CCCCC2)C1=O (configuration not stated)	0.34
O=C(CCCCCN1C(=O)c2ccccc2C1=O)NCc1ccccc1	1.2
O=C(CCS(=O)(=O)c1nc(-c2ccc3c(c2)OCO3)cc(C(F)(F)F)n1)Nc1cccc(O)c1	0.2
Cc1ccccc1C(=NS(=O)(=O)c1ccc(Br)cc1)Nc1ccccc1	-0.37
Cc1nnc(SCC(=O)Nc2ccc3ccccc3c2)[nH]c1=O	-0.44
SMILES	Measles inh
Cn1c(SCC=Cc2ccccc2)nc2sc3c(c2c1=O)CCC3	-2.3
O=C(C1=C(O)C(=O)N(CCc2ccccc2)C1c1ccc(Br)cc1)c1cccs1 (configuration not stated)	-0.59
O=C(Oc1ccc(N2C(=O)C3CCCCC3C2=O)cc1)c1ccccc1 (configuration not stated)	0.26
O=C(CN1CCN(Cc2ccccc2Cl)C1=O)NCc1ccco1	-0.42
CC(NC(=O)C1CCN(S(C)(=O)=O)CC1)c1ccccc1 (configuration not stated)	0.38
CCC(=O)N1CCc2cc(Br)cc(S(=O)(=O)CCC(=O)N3CCN(c4cc(C)ccc4C)CC3)c21	1.4
COc1ccc(NC(=O)C2CC(=O)OC23CCCCC3)c([N+](=O)[O-])c1 (configuration not stated)	-1.2
Cc1cc(C)c2nc(C)cc(Nc3ccc4c(c3)OCCO4)c2c1	0.89
Cc1ccc2cc(C3CC(c4ccco4)=NN3C(=O)CCCC(=O)O)c(Cl)nc2c1 (configuration not stated)	-0.92
Cc1ccc(C(=O)C[n+]2cc(Br)cc3ccccc32)cc1	-1.1
COc1ccc(CNS(=O)(=O)c2cc(C(=O)Nc3ccccc3C(F)(F)F)ccc2F)cc1	0.15
O=C(COc1ccc(-c2nnc(N3CCCCC3)c3ccccc23)cc1)N1CCCCC1	-0.24
CCOc1ccc(-n2c(SCC(=O)Nc3nnc(C)s3)nc3c(c2=O)SCC3)cc1	0.41
O=C(CSc1nc2c(sc(=S)n2Cc2ccco2)c(=O)n1-c1ccc(F)cc1)c1ccccc1	-0.61
COc1ccc(C(=O)Nc2cccc(C(=O)Nc3nccs3)c2)cc1	0.08
CC(C(=O)N(C)Cc1ccccc1)N(c1ccccc1)S(C)(=O)=O (configuration not stated)	-0.54
Cn1cc(C(=O)NCC2CCCO2)c2c3ccccc3n(C)c2c1=O (configuration not stated)	0.15
CC1CC(C)(C)NC(=S)N1CC(=O)NCc1ccc(F)cc1 (configuration not stated)	-0.34
CC(C)(C)c1ccc(C(=O)N2CCN(c3ccc([N+](=O)[O-])c(N4CCc5ccccc5C4)c3)CC2)cc1	-0.22
CCc1nnc(NC(=O)CSC2=NC(=O)C(c3ccccc3)C(=O)N2)s1 (configuration not stated)	0.58
CCCCOC(=O)CNS(=O)(=O)c1ccc([N+](=O)[O-])cc1	-0.17
CC(C)C(=O)Oc1ccc2c(c1)oc(=O)c1ccccc12	-0.45
CCCSc1nnc2c(n1)OC(c1ccncc1)Nc1ccc(Br)cc1-2 (configuration not stated)	0.57
COC(=O)CSc1nc(-c2ccccc2)cc(-c2ccccc2OC)c1C#N	-1.1
Cc1ccc(SCc2cc(=O)[nH]c(/N=C(\N)Nc3cccc4ccccc34)n2)cc1	-1.4
SMILES	Measles inh
Nc1ccc(N2CCN(CCO)CC2)cc1	4.5
c1ccc(N2CCN(c3ccccn3)CC2)nc1	0.42
COC(=O)CSc1nc2sc3c(c2c(=O)n1-c1ccccc1)C(C)CCC3 (configuration not stated)	-0.04
COc1ccc(S(=O)(=O)NC(C)c2ccccc2)cc1OC (configuration not stated)	-0.21
CCn1c(=O)c(C(=O)NC(C)c2ccccc2)c(O)c2ccccc21 (configuration not stated)	-0.24
O=C1c2ccc(Br)cc2C(=O)N1C1c2ccccc2Oc2ccccc21	-0.66
O=C(CSc1nnc(Cc2c[nH]c3ccccc23)n1Cc1ccccc1)c1c[nH]c2ccccc12	-1.3
Cc1ccc2[nH]c3c(c2c1)SC(C)(C)CC3=O	0.98
CCOC(=O)C1=C(C(=O)OCC)SC(=C2C(=S)C(C)(C)N(C(=O)C(F)(F)F)c3ccc(OCC)cc32)S1	-0.44
O=C(Cn1c(=O)n(-c2ccc(F)cc2)c(=O)c2ccccc21)N1CCCC1	2.5
O=[N+]([O-])c1ccc(C2=Nn3c(nnc3-c3cccc(Br)c3)SC2)cc1	-0.4
O=C(Nc1ccc2nsnc2c1)c1ccc2c(c1)OCO2	0.2
CCOC(=O)c1c(NC(=O)c2cccs2)sc(C(=O)Nc2ccc3c(c2)OCO3)c1C	1
O=c1c2ccc([N+](=O)[O-])c3cccc(c32)c2nc3ccccc3n12	0.37
CCCn1c(=N)n(CC(O)c2ccccc2)c2ccccc21 (configuration not stated)	0.04
NC(=O)c1ccc(N=c2oc3ccccc3cc2C(=O)Nc2ccccc2)cc1	-0.26
CCCCC(=O)Nc1ccc(S(=O)(=O)NC(=O)CC)cc1	0.75
O=C(NCCc1ccccc1)c1ccc2c(c1)NC(=O)C(N1CCOCC1)S2 (configuration not stated)	-2.4
COC(=O)C1=C(C)NC(=S)NC1c1ccc(OCC(=O)N2CCCCCC2)c(OC)c1 (configuration not stated)	0.03
O=C(Nc1cccc(Cl)c1)C1CCN(S(=O)(=O)c2ccc(Br)s2)CC1	1.6
CCCNC(=O)NC(=O)c1c(Cl)nc(C)c(Cl)c1C	-0.47
CCc1ccccc1NC(=O)CSc1ncnc2c1sc1ccccc12	0.25
O=C(CCCCn1c(=S)[nH]c2ccsc2c1=O)NCc1ccccc1Cl	-0.97
O=C(NCCSCc1ccccc1)c1ccc(Cn2c(=O)[nH]c3ccccc3c2=O)cc1	-0.1
CCOc1ccc(-n2nc(C(=O)Nc3cc(Cl)c(OC)cc3OC)c3ccccc3c2=O)cc1	-0.51
SMILES	Measles inh
CC(C)c1ccccc1NC(=O)c1ccco1	-0.47
CCOc1ccccc1C1C(C(=O)OC2CCCCC2)=C(C)NC2=C1C(=O)CC(c1ccc(OC)c(OC)c1)C2 (configuration not stated)	-1.3
CSc1ccc(C2C3=C(CC(C)(C)CC3=O)Nc3nnnn32)cc1 (configuration not stated)	-0.14
FC(F)(F)c1cc(-c2cccs2)nc2nc(=S)[nH]n12	0.01
O=C(NC1CCCCCC1)c1c[nH]c2ccc(S(=O)(=O)N3CCc4ccccc43)cc2c1=O	-3.2*
CCCCCOCC(O)CN1CCCCC1 (configuration not stated)	1.2
CC(=O)NC1(C(=O)NC2CCCC2)CCCCC1	-0.28
CS(=O)(=O)NCCNS(=O)(=O)c1ccccc1	0.43
C=CCNC(=O)c1cc(-c2ccncc2)nc2ccccc12	1.1
Cc1cccc(C(=O)Nc2ccc(Cl)c(C(N)=O)c2)c1	-0.6
COc1ccc(CNC(=O)c2ccc(NC(=O)C3CCCO3)cc2)cc1 (configuration not stated)	2.2
O=C(CSc1nc(-c2ccccc2)nc2c1CCCC2)Nc1ccccc1	0.83
CCOC(=O)CC1CSc2nc3sc(C)c(C)c3c(=O)n21 (configuration not stated)	0.19
N#CC1(c2ccccc2)CCC(=O)CC1	1
Oc1ccc(-c2nc3ccc(Cl)cn3c2Nc2ccc3c(c2)OCO3)cc1	1.3
Cc1ccc(N2CCN(S(=O)(=O)c3ccc4[nH]c(=O)c(=O)[nH]c4c3)CC2C)cc1 (configuration not stated)	0.33
CCC(=O)N1CCc2cc(Br)cc(S(=O)(=O)NCCN3CCC(Cc4ccccc4)CC3)c21	1.4
Cc1nnc(NC(=O)CCN2C(=O)C3C4C=CC(C4)C3C2=O)nc1C (configuration not stated)	-0.74
CC(C(=O)O)n1cnc2scc(-c3ccc(Br)cc3)c2c1=O (configuration not stated)	-0.05
CCCNC(=O)CSc1nc2nc(C)c(Cc3ccc(C)cc3)c(C)n2n1	-0.64
COc1ccccc1-n1c(-c2nn(C)cc2Cl)n[nH]c1=S	-0.66
Cc1ccc(Nc2nnc(-c3ccc(C)c(S(=O)(=O)NCC4CCCO4)c3)c3ccccc23)c(C)c1 (configuration not stated)	-0.47
NC(=O)C1(N2CCCCC2)CCN(C(=O)c2cc3c(=O)oc4ccccc4c3s2)CC1	1.8
CC(C)c1ccc(C#N)c(SCC(=O)Nc2ccc(C(=O)O)cc2)n1	0.67
Cc1ccc(OCC(=O)n2nc(C)cc2C)c(Br)c1	1.9

Bioassay records deposited in PubChem by Emory University Molecular Libraries Screening Center.
